D2 PAM: Beta-Arrestin HTS for Positive Allosteric Modulators of the Human D2 Dopamine Receptor: Potentiators. DiscoveRx D2 beta-arrestin cells, luminescence, 90 min; 100% = 57 uM dopamine signal. potentiation, % (concentration not given with the values). D(2) dopamine receptor (Homo sapiens), P14416. actives 0.23% (n = 360,000); active = potentiation of 50% or more; inconclusive = 30% to 50%; inactive = 30% or less;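 also: compound concentration not given in the record; tested on top of an EC20 dose of dopamine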
Target sequence (P14416 whole entry, looked up): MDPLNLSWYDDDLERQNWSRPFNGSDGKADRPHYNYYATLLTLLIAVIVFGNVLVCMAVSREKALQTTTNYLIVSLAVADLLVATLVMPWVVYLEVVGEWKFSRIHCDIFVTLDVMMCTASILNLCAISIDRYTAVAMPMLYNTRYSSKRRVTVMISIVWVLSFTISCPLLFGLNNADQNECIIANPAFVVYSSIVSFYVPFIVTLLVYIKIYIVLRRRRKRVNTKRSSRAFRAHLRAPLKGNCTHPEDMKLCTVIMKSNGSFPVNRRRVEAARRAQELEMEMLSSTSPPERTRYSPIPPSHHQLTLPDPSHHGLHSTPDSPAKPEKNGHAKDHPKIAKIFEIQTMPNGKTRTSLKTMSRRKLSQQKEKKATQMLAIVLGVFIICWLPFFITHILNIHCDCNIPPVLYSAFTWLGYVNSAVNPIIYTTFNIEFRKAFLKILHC
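PathHunter D2 cells, attached overnight at 37 deg C, received compound in DMSO plus dopamine at EC20 (50 nM final) for 90 min at 37 deg C. Beta-arrestin recruitment was read as luminescence after 1 h with detection reagent at ambient temperature.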
D2 ag: Beta-Arrestin HTS for Positive Allosteric Modulators of the Human D2 Dopamine Receptor: Agonists; activation, % (concentration not given with the values); D(2) dopamine receptor (Homo sapiens), P14416; actives 0.084% (n = 360,000); DiscoveRx PathHunter D2 beta-arrestin, luminescence, 90 min; 100% = 57 uM dopamine signal; in the data active = activation above about 40%; inconclusive = about 15% to 40%; inactive = below about 15%; also: compound concentration not given in the record; the text of the record calls up to 30% inactive
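Agonist mode: compounds alone added to overnight-plated D2 PathHunter cells for 90 min at 37 C, with 57 uM final dopamine (EC100) defining full response. Beta-arrestin recruitment detected by chemiluminescent reagent, read after 1 h at ambient temperature.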
CtBP-E1A blk: qHTS Assay for Inhibitors of the CtBP/E1A Interaction; CtBP / adenovirus E1A interaction (AlphaScreen); AlphaScreen GST-E1A/His-CtBP binding, 1536-well; hits give low values; control for the full effect not named in the record; activity change, % (concentration not given with the values); actives 0.49% (n = 340,000); in the data active means activity change below about -65%; inconclusive means about -30% to -65%; inactive means above about -30%; also: % is scaled to controls: 0 for no effect and ±100 for the full control effect
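In 5 uL wells, 23 nL compound meets equimolar GST-E1A and His-CtBP (5X stock 125 nM each) for 2 h, 37 °C. Beads (5X, 50 ug/mL) then 1 h, 37 °C, dark.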
gsp antag: qHTS for Antagonists of gsp, the Etiologic Mutation Responsible for Fibrous Dysplasia/McCune-Albright Syndrome: qHTS; gsp-mutant cells, cAMP HTRF, 30 min; control for the full effect not named in the record; Potency, µM (doses to about 76.9 µM), inactives show at the highest dose activity change, negative = inhibition, hits mostly inhibitors; actives 0.4% (n = 340,000); AID 624288, 2012; active = falling curve of any shape with a large fitted effect; inconclusive = falling curve, mostly with a smaller effect; inactive = flat or rising curve; cell line not stated here;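 also: intracellular cAMP measured with PDE inhibitor Ro 20-1724 present during compound exposure; potency is read from the fitted curve at half-maximal effect; % is scaled to controls: 0 for no effect and ±100 for the full control effect; nearly all actives have a fitted effect of over 65% in size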
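G418-selected cells were plated in DMEM/10% FBS for 16-24 h at 37C, then treated with compounds plus the PDE inhibitor […] (300 uM solution added) for 30 min at 37C. Intracellular cAMP was measured by HTRF after 30 min lysis at room temperature.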
Six1-Eya2 blk: qHTS Assay for Inhibitors of the Six1/Eya2 Interaction. AlphaScreen GST-Six1/His-Eya2 binding, biochemical; hits give low values; control for the full effect not named in the record. actives 0.56% (n = 360,000). activity change, % (test concentration not listed). AID 651725, 2012; in the data active = activity change below about -65%; inconclusive = about -30% to -65%; inactive = above about -30%; also: % is scaled to controls: 0 for no effect and ±100 for the full control effect; compound concentration not given in the record
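GST-Six1 + His-Eya2 (5X stock: 250/500 nM); Tris pH 8.0, 300 mM NaCl, 0.05% BSA, 0.02% Tween 20; GSH donor/Ni acceptor beads; 1 h 37 °C dark; AlphaScreen readout.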
gsp ag: qHTS for Agonist of gsp, the Etiologic Mutation Responsible for Fibrous Dysplasia/McCune-Albright Syndrome: qHTS. Potency, µM (titrated, usually from 76.9 µM), for the others: at the top dose activation (cAMP increase), hits mostly activators. actives 0.13% (n = 340,000). AID 624287, 2012. gsp mutant cells, cAMP HTRF, 30 min; control for the full effect not named in the record; active = well fitted activation curve with a large enough effect; inconclusive = small, poorly fitted or top-dose-only effect, or another doubt; inactive = no such curve, though single readings can be large or run the other way; cell line not stated here;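 also: phosphodiesterase inhibitor Ro 20-1724 added with compounds to block cAMP breakdown; potency is read from the fitted curve at half-maximal effect; nearly all actives have a fitted effect of over 60% in size; about a fifth of the inactives were tested at one dose only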
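Cells stably selected in G418 were plated at 2000/well, grown 16-24 hr, then given compounds in DMSO with the PDE inhibitor […] (300 uM solution added) for 30 min at 37C; cAMP was read by HTRF.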
* = called active by the depositor; ? = inconclusive; . = not tested or not shown; [ ] = remark or other dose.

Every second line gives: D2 PAM | D2 ag | CtBP-E1A blk | gsp antag | Six1-Eya2 blk | gsp ag
Nc1nc(COC(=O)C2CC(=O)N(Cc3ccccc3)C2)nc(Nc2ccccc2)n1 (stereo not given)
    0.6 | 4.6 | -19.5 | 14.3% | -14.0 | -21.1%
CC(C)C[C@@H](CNCC(=O)[C@H](CC(C)C)NC(=O)c1[nH]cnc1C(=O)N[C@H](CN)CC(C)C)NC(=O)c1nc[nH]c1C(=O)N[C@@H](CC(=O)O)C(=O)O
    -9.9 | -2.6 | ? | 7.4% | -21.9 | .
COC(=O)[C@H](CC(C)C)NCc1cccc(CN[C@@H](CC(C)C)C(=O)OC)c1
    -14.0 | -2.3 | 14.2 | -4.0% | 9.5 | .
O=C(NCc1ccccc1F)C1CCCN(C(=O)NC2CCCCC2)C1 (stereo not given)
    -16.5 | 3.2 | -14.4 | 1.3% | -2.9 | 9.7%
COc1ccc(S(=O)(=O)NC2CCCCC2)c(C)c1C
    6.0 | 2.5 | -1.9 | -8.2% | 19.2 | 20.2%
CC1CCC(C(=O)NC(C(=O)Nc2ccccn2)C(C)C)CC1 (stereo not given)
    -11.3 | -7.3 | 1.2 | 1.9% | 5.8 | 9.0%[15.4 µM]
Cc1cccc(OCC(=O)Nc2cc(NC(=O)COc3cccc(C)c3C)cc(C(=O)O)c2)c1C
    -4.4 | -1.8 | . | -11.1% | -2.7 | -5.0%
NS(=O)(=O)c1ccc(-c2ccc(/C=C3\NC(=S)NC3=O)o2)cc1
    -14.5 | -6.4 | -11.2 | -5.0% | -11.2 | .
COc1cc(OC)cc(C(=O)NCC(=O)OCC(=O)c2cc(OC)ccc2OC)c1
    -12.5 | -5.3 | -0.1 | -14.5% | -0.1 | -21.8%
Cc1ccc2cc(CN(c3ccc(C)c(C)c3)S(C)(=O)=O)c(=O)[nH]c2c1
    -3.8 | -7.0 | -20.7 | -12.2% | -9.4 | 16.3%
CSc1nnc(SCC(=O)N(C)c2c(N)n(Cc3ccccc3)c(=O)[nH]c2=O)s1
    -4.5 | -3.0 | -1.3 | 9.1% | -0.8 | -20.9%
Cc1ccc(S(=O)(=O)N2CCN(C(=O)c3ccc(Br)o3)CC2)c(C)c1
    0.1 | 1.2 | -3.6 | -13.4% | -5.2 | 9.1%
Oc1ccc(Cl)cc1C=NN1CCCCCC1
    -20.7 | -2.8 | -18.4 | -11.6% | -24.1 | 8.9%[15.4 µM]
CCOc1ccc(-c2c(C(=O)N/N=C/c3sccc3C)nnn2-c2nonc2N)cc1
    -2.1 | 0.8 | -10.9 | ? | -5.6 | 18.7%
CS(=O)(=O)Nc1ccc2[nH]c(=O)[nH]c2c1
    0.4 | -0.1 | 4.5 | 10.5% | 3.4 | -6.7%

Ordered by the number under gsp antag (low to high): some entries from above.
Every second line gives: D2 PAM | D2 ag | CtBP-E1A blk | gsp antag | Six1-Eya2 blk | gsp ag
NS(=O)(=O)c1ccc(-c2ccc(/C=C3\NC(=S)NC3=O)o2)cc1
    -14.5 | -6.4 | -11.2 | -5.0% | -11.2 | .
COC(=O)[C@H](CC(C)C)NCc1cccc(CN[C@@H](CC(C)C)C(=O)OC)c1
    -14.0 | -2.3 | 14.2 | -4.0% | 9.5 | .
O=C(NCc1ccccc1F)C1CCCN(C(=O)NC2CCCCC2)C1 (stereo not given)
    -16.5 | 3.2 | -14.4 | 1.3% | -2.9 | 9.7%

Going on with the list.
Every second line gives: D2 PAM | D2 ag | CtBP-E1A blk | gsp antag | Six1-Eya2 blk | gsp ag
COc1cc(C2C(C#N)=C(N)Oc3c2ccc2ccccc32)ccc1OCC(=O)Nc1ccccc1C (stereo not given)
    -15.9 | -1.0 | -0.8 | -7.5% | -4.4 | -13.5%
Cc1cc2[nH]c3ccccc3c2c(C)n1
    -3.3 | 0.2 | -6.6 | 6.0% | -2.7 | 14.8%
O=c1cc(N=Nc2ccc(Cl)cc2)[nH]c(=O)[nH]1
    -5.3 | 4.1 | -10.4 | 3.6% | 2.8 | 25.2%[15.4 µM]
CC(=O)Nc1ccc(S(=O)(=O)N2c3ccccc3C(C)=CC2(C)C)cc1
    -2.4 | 0.3 | 24.1 | 20.6% | 11.1 | 26.5%
Cn1nc(C(F)(F)F)c(C#N)c1N1CCN(c2cccc(C(F)(F)F)c2)CC1
    -28.9 | -2.5 | 5.0 | -0.8% | 6.7 | -44.8%[inhibitor]
COc1cccc(CN2CCN(C(=O)c3cc(-c4cccnc4)nc4ccc(C)cc34)CC2)c1
    -5.8 | 9.4 | 7.3 | 7.1% | -10.6 | -2.1%[15.4 µM]
O=C(Nc1ccc(CN2CCOCC2)cc1)c1ccc(Cl)cc1Cl
    -5.9 | -2.8 | -10.7 | 4.8% | 5.5 | 19.2%
COc1ccc(CNS(=O)(=O)NCc2ccc(C)cc2)cc1OC
    -5.0 | -0.4 | 3.0 | 2.5% | 5.5 | -4.8%
CN(C)S(=O)(=O)n1cc(/C=C(\NC(=O)c2ccccc2F)C(=O)N2CCCCC2)c2ccccc21
    -6.3 | -0.7 | -2.0 | . | 1.5 | -44.5%[inhibitor]
Cn1c(=O)[nH]c(=O)c2c1nc(CN1CCOCC1)n2CCCO
    -6.1 | -1.5 | 0.4 | 11.3% | -0.8 | 8.1%
O=C(/C=C/c1cn(-c2ccccc2)nc1-c1ccccc1)Nc1ccc(C(=O)O)cc1
    4.2 | 4.4 | -4.5 | ? | 15.7 | -15.1%[15.4 µM]
CC(=O)Nc1c(C)nn(C(C)=O)c1C
    2.9 | 4.2 | 7.4 | 22.3% | 14.6 | 4.8%
CCN(CC)S(=O)(=O)c1ccc(OC)c(NC(=O)CSc2cc(Cl)ccc2Cl)c1
    -1.0 | 0.5 | -8.9 | -4.7% | -9.2 | ?
CCS(=O)(=O)N1CCC(C(=O)NCCc2ccccc2)CC1
    -2.0 | -1.3 | 6.4 | 5.1% | -1.7 | 0.6%
COc1ccc(-n2c(COc3ccccc3)nnc2SCC(N)=O)cc1
    -37.2 | -6.9 | 3.2 | -9.9% | -3.3 | -8.9%

The results go on.
Every second line gives: D2 PAM | D2 ag | CtBP-E1A blk | gsp antag | Six1-Eya2 blk | gsp ag
COc1ccc(-c2cc([C@H]3[C@@H]4C=CCC[C@@]4(C)C(=O)N3Cc3ccccc3)ccc2F)cc1
    -12.0 | -2.2 | -25.2 | -8.5% | -8.8 | .
COc1ccccc1NC(=O)Cn1nnc(C(=O)NCCc2ccccc2)c1N
    -5.4 | -2.5 | -2.0 | 5.0% | 7.4 | -9.9%[15.4 µM]
CC1(C)C(C=C(Cl)Cl)C1C(=O)OCc1cccc(Oc2ccccc2)c1 (stereo not given)
    -0.3 | 2.7 | 18.8 | -1.6% | 17.0 | .
Nc1nc(=O)c2ccccc2s1
    -13.0 | -2.4 | 0.0 | 4.0% | -3.4 | -2.3%
Cc1ncoc1C(=O)N1CCCC(CCC(=O)NCc2ccc(F)c(F)c2)C1 (stereo not given)
    -16.1 | -2.6 | 6.5 | 0.2% | -4.5 | 28.1%
CN1CCN(S(=O)(=O)c2cccc(C(=O)Nc3ccccc3N3CCOCC3)c2)CC1
    -7.3 | 4.6 | -13.6 | 1.1% | -0.5 | 21.1%
CCC(CO)Oc1cc(NCc2ccc(Cl)cc2)c2ncn(C(C)C)c2c1 (stereo not given)
    -49.0 | 3.1 | -1.6 | 7.3% | -7.9 | .
O=C(O)CC(CN1C(=O)c2ccccc2C1=O)c1ccccc1 (stereo not given)
    0.8 | 2.1 | -0.6 | -7.5% | 5.1 | 10.5%
CCOC(=O)c1c(NC(=O)CCN2CCOCC2)sc(C)c1-c1ccccc1
    -8.5 | -4.5 | -12.6 | 1.1% | -4.4 | -82.1%[inhibitor]
CCn1c(CC(=O)Nc2ccc(C)cc2)nnc1SCC(=O)NCCc1ccccc1
    0.7 | -0.4 | -5.1 | -21.2% | 1.6 | -11.0%
COc1ccc2c(c1)CCCC21NC(=O)N(CC(=O)N2CC(C)OC(C)C2)C1=O (stereo not given)
    -5.0 | -4.8 | . | -6.3% | 8.3 | ?
CCN(CC)S(=O)(=O)c1ccc(N2C(=O)Nc3ccccc3N2O)cc1
    6.7 | -0.1 | -2.7 | 16.2% | 9.4 | -14.3%
Cc1cc(C)c(C)c(S(=O)(=O)N2C(=S)NC(=O)C2C(C)C)c1C (stereo not given)
    11.5 | 2.7 | -1.1 | 0.6% | 12.9 | 8.8%
CC(C)Oc1ccc(NC(=O)c2ccncc2)cc1
    -1.1 | -0.9 | -5.6 | -4.8% | -5.8 | -17.5%
O=C1CCCN1c1ccc(S(=O)(=O)NCc2ccc(F)cc2)cc1
    -6.9 | -2.4 | 0.8 | -0.2% | 1.1 | -1.7%

(more compounds)
Every second line gives: D2 PAM | D2 ag | CtBP-E1A blk | gsp antag | Six1-Eya2 blk | gsp ag
O=C(Nc1ccc(C(=O)O)cc1)/C(=C\c1cccc([N+](=O)[O-])c1)NC(=O)c1ccc(Br)o1
    -8.9 | 0.4 | -2.4 | 1.1% | -1.6 | -35.3%[inhibitor]
C[C@H](NC(=O)c1[nH]cnc1C(=O)Nc1ccc(CNC(=O)OC(C)(C)C)cc1)C(=O)OCc1ccccc1
    -0.4 | 0.0 | . | ? | 6.1 | -16.4%
CCOC(=O)c1cnc(-c2ccccc2)nc1N(C)C
    1.7 | -2.0 | 0.9 | -1.7% | 12.0 | 1.0%
CCN(CC)CCCN1C(=O)C(O)=C(C(=O)c2cc3cccc(OC)c3o2)C1c1ccncc1 (stereo not given)
    -3.4 | -2.0 | 3.2 | 12.6% | 5.3 | ?
O=C(N/N=C/c1cc([N+](=O)[O-])ccc1O)c1ccc(COc2ccc3c(c2)CCC3)o1
    -8.3 | -5.2 | -17.5 | -17.2% | -3.2 | -34.6%[inhibitor]
CC1(C)c2ccccc2N2CC(=O)N[C@@]21/C=C/C=C/c1ccccc1
    -7.1 | 1.4 | 2.3 | -32.2% | -1.8 | 23.6%[15.4 µM]
CCN(CC)C(C)C(=O)NCC1(c2ccccc2)CCOCC1 (stereo not given)
    -2.9 | -0.5 | 5.1 | 8.7% | 1.9 | 9.3%
COc1ccc(OC)c(-c2cc(C(=O)Nc3c(C)nn(Cc4ccc(Cl)cc4)c3C)no2)c1
    -7.6 | 0.1 | -5.8 | ? | -22.7 | 4.0%
N#Cc1ccccc1S(=O)(=O)N1CCN(C(=O)C2COc3ccccc3O2)CC1 (stereo not given)
    -0.1 | 2.2 | -6.5 | 1.6% | 2.6 | 0.6%
O=C(Cc1ccccc1)NCC(=O)N/N=C/c1cccnc1
    -1.5 | -1.9 | 8.8 | 6.7% | 5.3 | 8.9%[15.4 µM]
CN(C)CCNC(=O)C(=O)NCC1OCCN1S(=O)(=O)c1ccc2c(c1)OCCO2 (stereo not given)
    17.9 | 4.8 | 6.8 | 11.2% | 3.8 | -0.4%[15.4 µM]
